# Screening data as filed in PubChem BioAssay.
# YopH inh: YopH (Yersinia) phosphatase inhibition | fluorescence Ex485/Em525 | inhibition, %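 (about 10 µM by stock and volumes)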 | 140,000 tested, 0.16% active;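 active = inhibition of 50% or more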;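 note: controls were vehicle for no effect and minimum signal wells for full effect; inactives centre near -20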
# Mtb H37Rv: M. tuberculosis H37Rv growth inhibitors, H37Rv strain (AID 1626). M. tuberculosis H37Rv growth inhibition; higher % means a stronger effect. inhibition, % at 10 µM; hits with a dose series show IC50 in µM. 220,000 tested, 0.95% active;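 active = confirmed in a dose series; inconclusive = inhibition above 80% but not taken into the dose series; inactive = below 80% or under 30% at every dose of the series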;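 note: bacteria incubated seven days before Alamar blue readout; 0% = bacteria only wells and 100% = bacteria with antibiotic wells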
# Arbovirus anti: blocks arbovirus infection | inhibition, % at 10 µM | arbovirus infection cell-based antiviral screen | 200,000 tested, 0.37% active;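 active = inhibition from about 30%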;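 note: bluetongue infection of BSR cells; cell survival read as ATP light after 72 h; 0% = infected wells without compound and 100% = uninfected wells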
# RecA splice inh: blocks M. tuberculosis RecA intein splicing | inhibition, %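 (about 9 µM by stock and volumes)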 | P9WHJ3 | cell-free RecA intein splicing, fluorescence | 290,000 tested, 0.75% active; in the data active = inhibition above about 30%; inconclusive = no clear call, values can overlap the other calls;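 note: 0% = vehicle wells and 100% = reference inhibitor control wells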
# Target sequence (P9WHJ3 whole entry, looked up, canonical isoform): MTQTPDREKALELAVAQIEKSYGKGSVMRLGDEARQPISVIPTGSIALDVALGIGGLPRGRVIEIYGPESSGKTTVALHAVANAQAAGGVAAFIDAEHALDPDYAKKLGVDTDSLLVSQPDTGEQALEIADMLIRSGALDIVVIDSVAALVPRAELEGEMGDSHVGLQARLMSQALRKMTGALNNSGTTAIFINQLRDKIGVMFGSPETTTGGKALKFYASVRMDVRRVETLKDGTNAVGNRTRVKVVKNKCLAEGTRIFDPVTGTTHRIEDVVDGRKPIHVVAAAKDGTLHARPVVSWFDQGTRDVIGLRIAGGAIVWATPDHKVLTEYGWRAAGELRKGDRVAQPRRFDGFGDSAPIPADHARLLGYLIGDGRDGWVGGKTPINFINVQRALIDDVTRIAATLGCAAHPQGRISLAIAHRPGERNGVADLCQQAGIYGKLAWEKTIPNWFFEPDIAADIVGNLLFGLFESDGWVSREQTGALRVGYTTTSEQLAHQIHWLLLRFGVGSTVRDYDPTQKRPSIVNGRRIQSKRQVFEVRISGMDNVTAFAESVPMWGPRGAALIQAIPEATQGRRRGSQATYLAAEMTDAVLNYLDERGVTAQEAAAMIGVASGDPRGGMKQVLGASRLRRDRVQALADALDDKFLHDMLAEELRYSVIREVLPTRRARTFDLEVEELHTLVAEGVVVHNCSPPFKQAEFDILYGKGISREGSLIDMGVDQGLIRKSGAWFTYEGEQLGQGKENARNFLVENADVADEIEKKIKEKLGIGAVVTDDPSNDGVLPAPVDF
# Mtb betalactam: beta-lactam sensitization of Mtb H37Rv. M. tuberculosis H37Rv growth with meropenem, percent inhibition; hits of this screen are not shown here. inhibition, % at 25 µM. 330,000 tested, 0.27% active;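 active = about 74% or more and at least 40 points above the plate without the antibiotic, then above 30% in a dose series; inconclusive = first-round hits that could not be retested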;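 note: growth measured after seven days incubation then overnight dye step; 0% = bacteria only wells and 100% = bacteria with antibiotic; twin plates without the antibiotic show which effects depend on it; some results filed as inactive read as strong as hits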
# Arbovirus anti repeat: recorded beside Arbovirus anti, whose call it bears; inhibition, %; measured here: 10K subset replicate screen; many hits read low in the repeat;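 first of two repeat runs on a subset; 0% = infected and 100% = uninfected wells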
# * hit, by the source's call; ? = inconclusive; . = no result given.
SMILES,YopH inh,Mtb H37Rv,Arbovirus anti,RecA splice inh,Mtb betalactam,others
O=C(Nc1ccccn1)c1cc(-c2cccc(Cl)c2)nc2ccccc12,.,?,3,16,97,
Cc1ccc(S(=O)(=O)NCCC(=O)OCC(=O)N2CCCC2=O)cc1C,.,.,.,-1.5,0,
Cc1ccnc(NS(=O)(=O)c2ccc(NC(=O)/C=C/c3cccs3)cc2)n1,.,11%,5,-2.0,15,
Cc1cc(C(=O)Nc2ccccc2)oc(=O)c1,.,-2%,.,-0.7,-10,
Clc1ccccc1-c1nnc2sc(C3COc4ccccc4O3)nn12 (stereo not given),-25,3%,-5,.,.,
O=C(C1CCN(S(=O)(=O)c2cccs2)CC1)N1CCCC(C(F)(F)F)C1 (stereo not given),.,.,.,-1.2,-3,
C/C(CC(=O)Nc1ccc2c(c1)OCO2)=N\NC(=O)c1ccccc1N,.,-1%,.,-1.4,-8,
Cc1ccccc1CC1SC(N=C(N)N)=NC1=O (stereo not given),.,.,.,0.7,-10,
CCN(c1ccccc1)S(=O)(=O)c1cc(OC)ccc1OC,-17,6%,-5,3.2,-13,
CCc1cccc(C)c1NC(=O)CSc1nnc(-c2cc3cc(Br)ccc3o2)n1CC,-37,-1%,-3,-0.2,0,

# Some of these compounds in order of length of the SMILES, ascending:
SMILES,YopH inh,Mtb H37Rv,Arbovirus anti,RecA splice inh,Mtb betalactam,others
Cc1ccccc1CC1SC(N=C(N)N)=NC1=O (stereo not given),.,.,.,0.7,-10,
CCN(c1ccccc1)S(=O)(=O)c1cc(OC)ccc1OC,-17,6%,-5,3.2,-13,
Clc1ccccc1-c1nnc2sc(C3COc4ccccc4O3)nn12 (stereo not given),-25,3%,-5,.,.,
Cc1ccc(S(=O)(=O)NCCC(=O)OCC(=O)N2CCCC2=O)cc1C,.,.,.,-1.5,0,
Cc1ccnc(NS(=O)(=O)c2ccc(NC(=O)/C=C/c3cccs3)cc2)n1,.,11%,5,-2.0,15,
CCc1cccc(C)c1NC(=O)CSc1nnc(-c2cc3cc(Br)ccc3o2)n1CC,-37,-1%,-3,-0.2,0,

# (cont.)
SMILES,YopH inh,Mtb H37Rv,Arbovirus anti,RecA splice inh,Mtb betalactam,others
CCN1CCN(C(=O)CS(=O)Cc2nc(-c3cccc(C)c3)oc2C)CC1 (stereo not given),.,.,.,0.9,4,
O=C(c1ccccc1F)N1CCN(c2ccc([N+](=O)[O-])cc2-n2cccc2)CC1,.,?,.,12,99,
O=C(Nc1ccn(Cc2ccccc2)n1)c1cccc(Cn2cc([N+](=O)[O-])cn2)c1,-21,-1%,-15,-0.7,23,
COc1ccc2c(c1)cc(C(O)c1ccccn1)n2S(=O)(=O)c1ccccc1 (stereo not given),-25,1%,-7,-3.5,2,
Cc1ccc(N/C(=C\C(=O)c2ccccc2)C(=O)O)cc1,.,-1%,-9,1.4,18,
Cc1cc([N+](=O)[O-])c(NCCCCCCO)c([N+](=O)[O-])c1,-28,-8%,.,-9.5,-3,
O=C1CN(C(=O)c2cc(F)cc(F)c2)c2ccccc2N1,.,.,.,0.5,0,
CCCCn1c(=O)[nH]c(=O)c2c(C(=O)OCC)cc(-c3ccc(OC(F)F)cc3)nc21,.,3%,-12,0.2,5,
C=CCn1c(=NC(=O)c2ccccc2[N+](=O)[O-])sc2cc(S(C)(=O)=O)ccc21,-26,-8%,-3,-1.2,-3,
CCOC(=O)C1CCN(CC(=O)N2CCc3ccccc32)CC1,.,.,.,0.7,10,
Cc1sc2nc[nH]c(=O)c2c1-c1ccc(F)cc1,.,.,.,-0.9,-2,
CC(=O)c1cnc(-c2ccccn2)s1,.,3%,-2,-0.2,-5,
COc1cccc(NC(=O)CSc2nnc(Cc3ccc(C)cc3)c(=O)n2N)c1,.,.,.,6.9,-6,
COc1ccc(CCNC(=O)CS(=O)(=O)Cc2nc(-c3ccc(C)cc3)oc2C)cc1OC,.,.,.,2.8,2,
COc1cc(/C=C/C(=O)N2CCN(C)CC2)cc(S(=O)(=O)N2CCc3ccccc32)c1OC,.,6%,.,-0.2,-10,
O=S(=O)(Nc1nc2cc3c(cc2nc1Cl)OCCO3)c1ccccc1,.,-9%,7,-43,4,
CSCC[C@H](NC(=O)C1CCC(CNC(=O)[C@@H]2CCCN2C(=O)OC(C)(C)C)CC1)C(=O)O (stereo not given in full),.,.,.,1.6,-6,
Cc1cccc2cc(CN(Cc3cccs3)Cc3nnnn3Cc3ccccc3)c(=O)[nH]c12,-56,5%,-24,-2.7,5,
Cc1ccc(Cl)cc1N1CCN(C(=O)Cn2ccc3ccccc3c2=O)CC1,-48,-3%,-1,6.7,6,
O=S(=O)(NC(=S)c1ccccc1)c1ccccc1,.,.,.,4.2,-6,
O=S(=O)(NCC(c1cccnc1)N1CCOCC1)c1ccccc1 (stereo not given),.,20%,10,1.9,-4,
NC(=O)CCC1NC(=S)N(Cc2ccccc2)C1=O (stereo not given),.,-3%,-4,1.6,-13,
CCOc1cc(/C=N/NC(=O)c2ccc(N(C)S(=O)(=O)c3ccccc3)cc2)ccc1OC,.,.,.,0.8,4,
CC/C(=N\NC(=O)CSCc1ccc(Cl)cc1)c1ccc2c(c1)OCCO2,-18,51%,-4,1.6,75,
COc1ccc(CN(C)C(=O)c2cc(-c3ccc(C)cc3C)nc3ccccc23)c(OC)c1OC,.,.,.,11,-2,
OC(C#CCCN1CCCCC1)(c1ccccc1)c1ccccc1,.,7%,.,2.7,-9,
CCC(=O)N1CCc2cc(Br)cc(S(=O)(=O)N3CCC(C(=O)NC(C)(C)C)CC3)c21,.,.,.,1.1,5,
c1ccc(-c2cc(-c3ccncc3)nc3ccc4ccccc4c23)cc1,-27,98%,-2,-2.5,2,
COC(=O)c1ccc(N2CCC(C)CC2)c(N)c1,-3,4%,2,-0.3,0,
Cc1c2cn[nH]c(=O)c2c(C)n1-c1ccccc1,.,.,.,3.9,-1,
COc1cc(C(=S)N2CCC(Cc3ccccc3)CC2)ccc1OCC(N)=O,.,.,.,3.9,4,
O=C(CN1C(=O)C2C3C=CC(C3)C2C1=O)Nc1ccc(S(=O)(=O)Nc2nccs2)cc1 (stereo not given),.,3%,.,-1.3,-13,
COc1cc(C(=O)OCC(=O)N2c3ccccc3NC(=O)C2(C)C)ccc1OCC(C)C,.,.,.,7.2,-6,
Cc1ccc(NC(=O)CN(C)Cc2ccc(Cl)cc2)cc1,.,28%,14,2.3,-2,
CCOc1ncccc1C(=O)OCC(=O)Nc1cccc(S(N)(=O)=O)c1,.,-8%,13,-0.6,-10,
COc1ccccc1C(=O)N/C(=C\c1ccccc1)C(=O)NC(Cc1ccccc1)C(=O)O (stereo not given),.,.,.,2.1,-2,
CC(=O)c1ccc(N2CCN(C(=O)c3ccc4c(Cl)c5c(nc4c3)CCCC5)CC2)cc1,.,-3%,-12,.,.,
Cc1sc2ncnc(OCC(=O)c3ccc(S(=O)(=O)N4CCCC4)cc3)c2c1C,-29,-6%,-8,.,0,
O=C(COC(=O)CSc1ccc2ccccc2c1Br)NC1CC1,.,0%,-2,1.8,1,
CC(C)(C)c1cc(=O)n(-c2ccccc2)[nH]1,-26,0%,-4,.,3,
CN1C2CCC1/C(=C/c1cccn1C)C(=O)/C2=C\c1cccn1C,-29,6%,9,5.9,4,
COc1ccc(N(CC(=O)Nc2cccc3ccccc23)S(C)(=O)=O)cc1,.,.,.,-1.6,0,
O=C(NCc1ccco1)[C@@H]1CSC2c3ccccc3C(=O)N21 (stereo not given in full),-30,-11%,0,3.6,-5,
COc1cccc(C(=O)N(C)C(C)c2nc3ccccc3s2)c1 (stereo not given),.,.,.,1.7,0,
Cc1cc(C)n(-c2nc3c(c(=O)[nH]c(=O)n3C)n2CC(O)COc2ccccc2C)n1 (stereo not given),-35,-13%,1,4.9,-12,
CCN(CC(=O)Nc1c(F)cccc1F)C(=O)c1cc(C)nc2ccccc12,.,.,.,-2.3,-2,
O=C1c2oc3ccc(F)cc3c(=O)c2C(c2ccc(F)cc2)N1CCCN1CCOCC1 (stereo not given),-14,-3%,6,-0.7,-3,Arbovirus anti repeat=2
Cc1ccc(S(=O)(=O)N2CCC(=O)N(CCOCc3ccccc3C)CC2)cc1,-32,-1%,5,7.1,0,
Cc1nn(C)c(C)c1S(=O)(=O)NCc1cccs1,-20,-5%,4,3.9,-7,
COc1ccc2cc3cc(C(=O)NCC4CCCO4)oc3nc2c1 (stereo not given),-28,5%,3,-0.9,10,
# Further entries.
SMILES,YopH inh,Mtb H37Rv,Arbovirus anti,RecA splice inh,Mtb betalactam,others
CCOc1cc(N2CCOCC2)c(OCC)cc1NC(=O)c1ccccc1C,.,-6%,1,-4.0,2,
CCOC(=O)c1c(C)[nH]c(C(=O)COC(=O)CCC2CCCC2)c1C,8,0%,-2,-4.2,.,
CC(NS(=O)(=O)c1cccc(Cl)c1)C(=O)N(C)C1CCN(C)CC1 (stereo not given),.,-2%,-1,1.2,-8,
COc1ccc(CNC(=O)C(=O)NCC2CCCN2S(=O)(=O)c2cccs2)cc1 (stereo not given),.,.,.,1.1,-10,
COc1ccc(S(=O)(=O)N2CCN(Cc3cccc(Cl)c3)CC2)cc1,8,0%,12,6.1,-1,
CC/C(=N\Nc1ccnc2cc(Cl)ccc12)c1ccc(O)cc1,.,.,.,0.4,1,
COc1ccccc1N(CC(=O)NC(C)(C)C)C(=O)Cn1nnc(-c2ccc(C)o2)n1,-45,-4%,1,-3.1,-5,
CC1CN(c2ccc(S(=O)(=O)N3CCOCC3)cn2)CC(C)O1 (stereo not given),13,-2%,-3,-2.1,-8,
NCCOc1cnn(-c2ccccc2Cl)c(=O)c1Cl,-31,0%,0,-2.9,6,
COc1ccccc1C1(CC(=O)N2CCOCC2)CCOC(C(C)C)C1 (stereo not given),-24,-3%,-5,-0.1,-6,

# A section taken from the entries so far:
SMILES,YopH inh,Mtb H37Rv,Arbovirus anti,RecA splice inh,Mtb betalactam,others
CC1CN(c2ccc(S(=O)(=O)N3CCOCC3)cn2)CC(C)O1 (stereo not given),13,-2%,-3,-2.1,-8,
NCCOc1cnn(-c2ccccc2Cl)c(=O)c1Cl,-31,0%,0,-2.9,6,
COc1ccccc1C1(CC(=O)N2CCOCC2)CCOC(C(C)C)C1 (stereo not given),-24,-3%,-5,-0.1,-6,

# The list continues:
SMILES,YopH inh,Mtb H37Rv,Arbovirus anti,RecA splice inh,Mtb betalactam,others
Brc1cccc(Cn2c(-c3cncs3)nc3ccccc32)c1,-43,-3%,8,3.5,0,
COc1ccc(C2CC(c3ccccc3O)=NN2c2ccccc2)cc1 (stereo not given),.,.,.,-27,-5,
O=C(CCCN=C1NS(=O)(=O)c2ccccc21)OCc1cc([N+](=O)[O-])cc2c1OCOC2,.,3%,6,-4.1,-11,
COc1c(N2CCN(C(=S)NCc3ccccc3)C(C)C2)c(F)cc2c(=O)c(C(=O)O)cn(C3CC3)c12 (stereo not given),14,?,0,6.2,100,
CC(C)c1c(C(=O)N/N=C/c2ccco2)nnn1-c1nonc1N,.,.,.,4.4,3,
Clc1ccc(-c2csc(N3CCCCCC3)n2)cc1,.,.,.,6.5,-23,
c1ccc(CCNc2nc(-c3cccnc3)cs2)cc1,-27,10%,8,6.0,21,
O=C(C[n+]1ccc(C(=O)N/N=C/c2ccc(O)cc2)cc1)c1ccccc1,-23,73%,6,23,98,
COc1ccc(N2CCN(S(=O)(=O)c3ccc4oc(=O)ccc4c3)CC2)cc1,.,.,.,2.7,-8,
CC(=O)c1cc2c(cc1NS(=O)(=O)c1ccc(C)cc1)OCCO2,-35,5%,-13,-3.7,-1,
COc1ccccc1C1C(C(N)=O)=C(C)Nc2nc(-c3ccccc3Cl)nn21 (stereo not given),-24,-9%,1,-0.7,-6,Arbovirus anti repeat=0
Cc1cc(=O)oc(C)c1C(=O)N1CCN(C)CC1,-18,-14%,6,0.0,-5,
CCN(CC)CCOC(=O)c1ccc(NC(=O)CNC(=O)c2ccccc2)cc1,.,-2%,0,-0.2,4,
Cc1onc(-c2ccccc2Cl)c1C(=O)Nc1nnc(Cc2ccc(Cl)cc2)s1,-7,9%,-7,10,50,
O=C(NCC1OCCCN1S(=O)(=O)c1cc(F)ccc1F)C(=O)NC1CCCCC1 (stereo not given),.,-8%,21,0.7,-7,
O=C(CCN1C(=O)S/C(=C\c2ccccc2)C1=O)Nc1ccc(O)cc1C(=O)O,.,.,.,-6.5,2,
COC(=O)c1ccc(N2NC(=O)/C(=C/c3ccc(-c4ccc(Cl)c(C(=O)O)c4)o3)C2=O)cc1,.,24%,-2,-5.9,.,
O=C(CSc1nc2ccsc2c(=O)n1NC(=O)c1ccccc1)Nc1nccs1,-4,-4%,1,-1.0,-5,
c1coc(CNC2CCCCC2)c1,36,-75%,-3,-1.9,-1,
CCOc1ccccc1NC(=O)C1CCCN(c2c(CC)c(C)nc3ncnn23)C1 (stereo not given),.,.,.,1.5,2,
Cc1cccc(OCCNC(=S)NC(=O)c2cncc(Br)c2)c1,.,.,.,-4.4,-14,
CCSc1nc2cc(OC)c(OC)cc2c(=O)n1CC,-8,0%,-2,-16,0,

# A portion of the library; count on the stated rates, not on these rows.
